# Screening data (PubChem BioAssay)
# UCH37 inh: inhibitors of human deubiquitinating enzyme UCH37 | Q9Y5K5 | hit rate 0.33% among 330,000 | inhibition, % (concentration not given with the values) | purified proteasome/UCH37, Ub-AMC cleavage fluorescence;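 active = mean of two replicates above 20%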;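 note: 0% = compound-free wells with enzyme and 100% = wells lacking proteasome; stock transfer was 100 nL into about 20 µL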
#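 Reagent: Ub-AMC substrate; assay system: Proteasome-associated human UCH37 deubiquitinase; controls: no-proteasome and no-compound wells; read-out: % inhibition of Ub-AMC cleavage fluorescence; timing: 30 min preincubation with enzyme, 25 min cleavage at room temperature; signal: AMC fluorescence from Ub-AMC cleavage, excitation 355 nm, emission 460 nm; buffer or medium: Tris-HCl pH 7.4 plus ovalbumin, ATP-MgCl2, DTT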
# LANA-H2A inh: blocks KSHV LANA binding to histone H2A/H2B. AID 2629. hit rate 0.6% among 320,000. cell-free LANA-H2A/H2B peptide, fluorescence polarization. inhibition, % (concentration not given with the values); in the data active = inhibition mostly above about 10%, no sharp cut-off; inactive = mostly below about 6.7%;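 note: stock transfer was 7.5 nL into about 10 µL; 0% = median of vehicle wells and 100% = median of positive control wells; one replicate is shown; the record names a cut of 25% in any replicate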
# ALR inh: blocks human ALR sulfhydryl oxidase activity | P55789 | purified ALR, DTT oxidation, H2O2 HRP-luminol luminescence | inhibition, % (concentration not given with the values) | hit rate 3.8% among 290,000 | AID 485317;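 active = mean and each replicate at 75% or more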;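 note: stock transfer was 7.5 nL into about 7.5 µL; 0% = neutral wells and 100% = wells with inactivated enzyme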
# Target sequence (P55789 whole entry, looked up): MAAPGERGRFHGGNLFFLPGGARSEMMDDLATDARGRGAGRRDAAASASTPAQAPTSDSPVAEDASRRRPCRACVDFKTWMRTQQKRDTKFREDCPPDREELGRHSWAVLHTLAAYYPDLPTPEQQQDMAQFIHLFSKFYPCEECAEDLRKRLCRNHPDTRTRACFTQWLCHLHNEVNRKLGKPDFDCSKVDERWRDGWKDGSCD
# Ecoli growth: inhibitors of Escherichia coli growth. OD600, 23 h; active compounds read low. OD600 absorbance (no concentration beside the values). hit rate 0.21% among 330,000. AID 1053175;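 active = OD600 absorbance below the run mean of sample wells minus 3.6 SD, in any replicate, cut at about 0.56 in these data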;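 note: stock transfer was 300 nL into about 60 µL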
# FGF22 binding: FGF22 (human) thermal shift binding; Q9HCT0; recombinant FGF22 thermal shift, SYPRO orange fluorescence; percent of sucrose octasulfate shift, DMSO zero; calls only at 9.99 µM; hit rate 1.5% among 340,000;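 active = melting point raised past a set limit in the mean and every replicate; three in four hits are not shown here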
# Target sequence (Q9HCT0 whole entry, looked up): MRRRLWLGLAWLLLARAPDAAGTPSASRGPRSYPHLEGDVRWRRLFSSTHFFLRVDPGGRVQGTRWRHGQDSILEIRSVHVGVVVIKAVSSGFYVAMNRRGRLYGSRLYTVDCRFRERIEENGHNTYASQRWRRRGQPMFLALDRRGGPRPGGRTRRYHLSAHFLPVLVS
# HNF4A DNA FP: change in binding of human HNF4 alpha to DNA | AID 1224865 | activity change, % at 10 µM | HNF4a-FITC DNA binding, fluorescence polarization, 1 h | hit rate 0.3% among 360,000 | P41235; in the data active = activity change above about 30%, passing the limit was not always enough;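 note: controls were the assay level and a saturating level of protein; the project sought stronger binding though the title names inhibitors; some compounds called inactive have numbers as strong as hits; positive values seem to mean higher polarization but the record does not say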
# Target sequence (P41235 whole entry, looked up): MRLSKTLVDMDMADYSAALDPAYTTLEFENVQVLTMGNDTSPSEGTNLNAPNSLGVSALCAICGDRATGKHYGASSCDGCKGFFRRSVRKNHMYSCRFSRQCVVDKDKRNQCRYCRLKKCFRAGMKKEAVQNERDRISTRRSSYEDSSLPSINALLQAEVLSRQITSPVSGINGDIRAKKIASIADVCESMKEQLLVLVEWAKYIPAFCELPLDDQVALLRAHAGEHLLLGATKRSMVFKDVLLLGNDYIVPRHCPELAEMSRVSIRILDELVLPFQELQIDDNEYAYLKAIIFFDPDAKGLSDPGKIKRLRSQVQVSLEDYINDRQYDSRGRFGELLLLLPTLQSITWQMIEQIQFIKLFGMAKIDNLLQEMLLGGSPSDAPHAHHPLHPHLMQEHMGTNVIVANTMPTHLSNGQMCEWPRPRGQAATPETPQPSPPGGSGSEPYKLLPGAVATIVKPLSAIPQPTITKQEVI
# B2AR ag: activates human beta-2 adrenergic receptor causing internalization; Am2.2-beta2AR cells, FAP receptor internalization, flow cytometry; reference of the scale not given here; response, % (no concentration beside the values); hit rate 0.43% among 340,000;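 active = response above a set limit, near 3 SD of response in nonfluorescent compounds, cut at about 42% in these data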;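 note: stock transfer was 100 nL into about 11 µL; a reference agonist was the positive control; negative values mostly stem from fluorescent compounds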
# * hit, by the source's call; i = inactive; . = not tested or not shown.
SMILES,UCH37 inh,LANA-H2A inh,ALR inh,Ecoli growth,FGF22 binding,HNF4A DNA FP,B2AR ag
O=C(NCc1ccc(F)cc1)C(=O)NCC(c1ccco1)N1CCOCC1 (stereo unspecified),2.6,-1.2,-0.4,0.684,i,-4.2,-6.5
CNCCOc1ccc(Cl)c(Cl)c1,2.6,-6.0,-5.6,0.633,i,3.5,0.2
Cc1cccc(NC(=S)N2CCN(Cc3ccc4c(c3)OCO4)CC2)c1C,3.5,2.1,-3.5,0.719,.,0.6,5.1
CCOC(=O)N1CCN(S(=O)(=O)N2CCCC(C(=O)NCCCN3CCC(C)CC3)C2)CC1 (stereo unspecified),0.4,-4.1,-3.2,0.651,i,0.4,2.8
O=S(=O)(c1cccc2nsnc12)N1CCN(Cc2ccccc2)CC1,4.3,4.0,-7.4,0.658,i,-1.2,4.1
N#Cc1c2ccc(OCC(N)=O)cc2n2ccccc12,-101.3,0.5,-50.0,0.675,i,-2.4,-4.5
C[C@@H](C(=O)N=c1sc2ccccc2n1C)N1C(=O)C2CC=CCC2C1=O (stereo partly specified),2.5,.,.,0.678,i,6.0,-8.8
CC(C)(C)c1nc(SCC(=O)N2CCCC2)c2ccccc2n1,-0.2,1.2,-3.5,0.7,i,1.6,-8.4
CC(C)(C)c1ccc(-c2nc3cc(N)ccc3o2)cc1,-129.8,-1.1,98.8*,0.653,i,-1.6,1.4
COc1cccc(CNc2ncc(C(=O)Nc3cc(OC)c(OC)c(OC)c3)c(C)n2)c1,3.2,3.6,-3.8,0.675,i,2.2,4.0
C/C(=N\NC(=O)c1cc(C)nc2ccccc12)c1cccc(Cl)c1,.,0.0,0.5,.,i,-0.2,-4.1
CCOC(=O)Cc1csc(/C(=N/O)C(N)=O)n1,.,-3.1,2.3,.,.,-3.0,9.5
Cn1c2ccccc2c2cc(C(=O)NNC(=O)CCl)sc21,-25.0,-1.6,35.5,0.698,i,-2.8,-2.4
O=C(CN1CCN(S(=O)(=O)c2ccccc2)CC1)NC(=O)NCc1ccco1,1.8,2.0,-4.8,0.655,i,-0.8,0.1
CSCCCN1CCCC(CO)(Cc2ccccc2F)C1 (stereo unspecified),1.2,-3.7,.,0.635,i,-1.8,-1.7
CN(C(=O)C1CCCN(c2ncnc3c2nc2n3CCCCC2)C1)c1cccc(Cl)c1 (stereo unspecified),4.7,-3.0,-2.1,0.712,i,-5.3,-5.4
CC(C)C(=O)Nc1ccc(C(=O)NCc2cccnc2)cc1,1.3,-3.0,0.3,0.698,.,0.4,-5.0
O=C(CSC1=NCCS1)N1CCN(c2ccc(Cl)cc2)CC1,3.0,3.3,73.1,0.703,.,0.8,0.0
CCCCNC(=O)COC(=O)c1ccc(SC)cc1OC,4.5,3.4,-0.6,0.681,i,-3.8,-4.5
O=C(c1cccnc1)N(c1cc2sc(=O)oc2c2ccccc12)S(=O)(=O)c1ccccc1,-1.5,8.2,-25.8,0.702,i,-1.7,4.0
Cc1cc(=O)[nH]c(SCC(=O)Nc2ccc(S(=O)(=O)N3CCCCC3)cc2)n1,7.4,1.4,98.2*,0.708,.,1.2,6.5
CCOC(=O)N1CCC(NC(=O)CNS(=O)(=O)c2ccc(Br)s2)CC1,-0.3,-4.1,-8.5,0.75,i,-3.7,-3.2
CC1CCCCC1NC(=O)C1CC=CCC1C(=O)O (stereo unspecified),-1.5,-0.7,-4.2,0.712,.,0.1,0.7
CCCC1NC(C(=O)O)Cc2c1[nH]c1ccccc21 (stereo unspecified),-176.2,3.6,-7.5,0.652,i,3.2,11.5
O=C(COC(=O)Cc1cccc(C(F)(F)F)c1)NC1CC1,-1.9,1.7,2.4,0.713,.,5.0,-7.2
# (next part)
SMILES,UCH37 inh,LANA-H2A inh,ALR inh,Ecoli growth,FGF22 binding,HNF4A DNA FP,B2AR ag
O=C(NCc1cccnc1)Nc1cccc([N+](=O)[O-])c1,6.0,5.0,17.2,0.677,i,2.7,3.9
CC1CCN(CC(=O)Nc2ccc(N3CCCCCC3)cc2)CC1,2.8,-3.6,98.4*,0.676,i,6.0,9.2
COc1ccccc1C(=O)NCCC(=O)NC1CCC(C)CC1 (stereo unspecified),-2.3,-2.9,-2.0,0.679,i,0.7,5.2
CCn1ncc(/C=N/NC(=O)c2ccc3c(c2)OCO3)c1C,.,-1.5,-1.6,.,.,4.2,-10.0
O=C(NCc1ccccc1)NC(=O)c1ccc(Cl)cc1,4.8,3.7,-4.8,0.688,i,1.1,9.6
CCOC(=O)N1CCC(N2C(=O)c3ccc(C(=O)NCc4ccc(F)cc4)cc3C2=O)CC1,2.0,-7.8,-4.2,0.741,i,-0.8,-0.5
C[C@H]1CN([C@@H](C)CO)C(=O)c2cc(NC(=O)C3CCCCC3)ccc2O[C@H]1CN(C)C(=O)Nc1ccc2c(c1)OCO2,1.4,0.8,-12.4,0.723,i,-0.3,-1.7
Cn1c(CCN2CCCC2)nc2cc(NS(=O)(=O)c3ccccc3)ccc21,0.3,-2.4,-0.9,0.67,i,6.8,6.2
COc1ccc(C(CC(=O)O)NS(=O)(=O)c2ccc3c(c2)NC(=O)CO3)cc1 (stereo unspecified),-1.8,-3.7,-0.6,0.67,i,2.6,3.7
CCOc1ccc(Oc2ccccc2NC(=O)C2=COCCO2)cc1,6.0,1.2,-3.0,0.637,.,-1.0,3.2
CC(C)CCNC(=O)C1CCN(S(=O)(=O)c2ccc3nc4c(c(C(=O)O)c3c2)CCCCC4)CC1,4.3,-3.5,-11.5,0.709,i,0.4,-3.2
COC(=O)c1cc(S(=O)(=O)N(Cc2ccccc2)C(C)(C)C)c[nH]1,1.9,0.0,-0.2,0.655,i,4.8,-0.4
Cc1cc(N2C(=O)CC(C(C)c3ccccc3)C2=O)no1 (stereo unspecified),2.4,-1.1,.,0.689,.,1.5,6.1
CCN1CCN(S(=O)(=O)c2c(C)cc(C)cc2C)CC1,1.1,1.1,-18.5,0.652,i,2.0,4.4
CCN(CC)S(=O)(=O)c1ccc(Cl)c(NC(=O)COc2ccc3c(C)cc(=O)oc3c2)c1,-6.2,0.7,-43.1,0.715,i,-4.1,-4.8
CCOC(=O)c1cn(CC(=O)Nc2cccc(Cl)c2C)nn1,2.1,4.1,-12.2,0.699,.,-2.0,3.6
CCCn1c(SCC(=O)c2ccc3c(c2)OCCO3)nnc1-c1ccco1,1.0,-2.4,32.8,0.714,.,5.1,1.4
O=S(=O)(NCCc1ccccc1)c1ccc(S(=O)(=O)N2CCCCC2)cc1,3.1,-3.5,-4.9,0.709,i,-2.8,-3.1
Cc1c(-c2ccccc2)[nH]n2c(=O)c3c(nc12)CCCC3,-16.2,-1.3,5.3,0.625,i,1.1,-3.6
COC(=O)C1=C(N)OC2=C(C(=O)CC(C)(C)C2)C1c1cccs1 (stereo unspecified),1.7,-0.6,2.1,0.671,.,0.6,-3.3
Nc1c(-c2ccccc2)c(CN2CCOCC2)nn1-c1cccc([N+](=O)[O-])c1,1.0,5.6,16.5,0.693,i,2.3,-4.5
CCOc1ccc(CNc2ccc(N3CCCC3)cc2)cc1,3.5,-2.6,51.0,0.705,i,1.5,8.4
O=C(CCN1C(=O)/C(=C/c2ccccc2F)SC1=S)NCCCn1ccnc1,7.2,1.1,-2.0,0.73,i,5.3,-14.3
COc1ccc(N2CCN(C(=O)Cn3nnc(-c4ccc(N(C)C)cc4)n3)CC2)cc1,-0.6,-3.2,-2.7,0.739,i,6.2,.
Cc1cccc(C)c1OC(=O)C(c1ccccc1)c1ccccc1,3.3,-5.2,-4.1,0.681,i,3.4,5.4

# Structures above printed as active in ALR inh.
SMILES,UCH37 inh,LANA-H2A inh,ALR inh,Ecoli growth,FGF22 binding,HNF4A DNA FP,B2AR ag
CC(C)(C)c1ccc(-c2nc3cc(N)ccc3o2)cc1,-129.8,-1.1,98.8*,0.653,i,-1.6,1.4
Cc1cc(=O)[nH]c(SCC(=O)Nc2ccc(S(=O)(=O)N3CCCCC3)cc2)n1,7.4,1.4,98.2*,0.708,.,1.2,6.5
CC1CCN(CC(=O)Nc2ccc(N3CCCCCC3)cc2)CC1,2.8,-3.6,98.4*,0.676,i,6.0,9.2

# Next section:
SMILES,UCH37 inh,LANA-H2A inh,ALR inh,Ecoli growth,FGF22 binding,HNF4A DNA FP,B2AR ag
O=c1[nH]c(=O)c2nnc(N/N=C\c3ccc(O)cc3)nc2[nH]1,.,1.3,99.2*,.,i,-1.2,1.2
O=C(COc1ccc(Cl)cc1Br)NC(=O)NC1CCCC1,4.6,.,.,0.676,i,3.6,2.1
O=C1OCC2=C1C(c1ccc3c(c1)OCO3)c1cc3c(cc1O2)OCO3 (stereo unspecified),.,.,.,.,i,-1.6,-2.2
Nc1ccc(N=Nc2ccccc2Cl)c(N)n1,6.5,0.5,20.3,0.626,i,4.7,1.2
CCn1c(=O)cc(OCC(=O)N(C)C2CCCCC2)c2ccccc21,5.3,-0.8,-2.1,0.736,.,-1.2,-17.6
CN(CC(=O)Nc1cccc(F)c1)C(=O)CC1CC2CCC1C2 (stereo unspecified),3.2,-1.4,1.8,0.676,i,0.6,-1.7
CC(=O)Nc1ccccc1OCC(=O)NC(C)c1ccccc1 (stereo unspecified),1.3,-1.5,-5.0,0.683,i,-0.6,-10.1
O=C(c1ccc(=O)[nH]c1)N1CCN(S(=O)(=O)c2ccc(Cl)cc2)CC1,2.7,7.6,1.7,0.694,i,0.8,-4.6
CN(C)C(=O)CN(c1ccc2c(c1)OCO2)S(C)(=O)=O,3.8,-2.1,-6.0,0.679,i,-3.7,-5.8
COc1ccc(C(C)=O)cc1COc1ccc(Cl)cc1Cl,1.5,-4.7,-5.3,0.681,i,3.7,49.7*
CCN1CCN(C(=O)C2CCCN(S(=O)(=O)c3ccc(OC)c(OC)c3)C2)CC1 (stereo unspecified),1.8,2.8,1.0,0.664,i,0.2,4.2
COc1ccc(-n2nc(C(=O)NCC(=O)N3CCCCCC3)c3ccccc3c2=O)cc1,-2.1,8.1,-1.8,0.704,i,-0.2,-14.3
Cc1cccc(CSc2ccc3nnc(-c4ccccn4)n3n2)c1,1.3,0.0,-2.6,0.69,i,0.8,-8.7
COc1ccc(N(CC(=O)NCc2ccncc2)S(=O)(=O)c2ccccc2[N+](=O)[O-])c(OC)c1,1.8,1.8,-10.0,0.671,i,-3.4,4.8
CC(OC(=O)c1nc(Cl)ccc1Cl)C(=O)Nc1ccc2c(c1)OCCO2 (stereo unspecified),4.4,-5.1,.,0.677,i,-0.8,-7.8
COc1ccc(OC)c(S(=O)(=O)N2CCCC(C(=O)NCc3cccnc3)C2)c1 (stereo unspecified),1.6,-2.5,-2.5,0.682,i,0.4,71.3*
COc1ccc(-c2cc(C)no2)cc1S(=O)(=O)N1CCN(c2ccccc2F)CC1,3.9,-4.6,-3.0,0.719,i,1.7,-2.3
COc1ccc2cc(C(=O)C3CCCN(C(=O)c4sc(C)nc4C)C3)ccc2c1 (stereo unspecified),i,1.0,-19.9,0.678,i,3.0,-3.9
CC(Oc1ccccc1)C(=O)N=C1SC2CS(=O)(=O)CC2N1c1ccccc1 (stereo unspecified),1.3,-12.1,-5.7,0.71,i,-4.8,-4.2
COc1ccc(S(=O)(=O)N(Cc2cccnc2)Cc2cc3ccccc3[nH]c2=O)cc1,-1.5,-0.5,-1.6,0.671,i,1.9,-4.6
CCOc1ccc(NC(=O)c2ccc(NC(=O)CN3C(=O)C(=O)N(CC(C)C)C3=O)cc2)cc1,5.0,-0.9,-8.0,0.66,i,3.8,-6.8
COn1c(SCc2cccnc2)nc2ccccc2c1=O,0.6,3.1,-3.8,0.701,.,2.3,-8.6
CCn1nc(C(=O)N2CCc3ccccc3C2)c2ccccc2c1=O,7.8,-6.1,-0.4,0.672,.,-0.9,5.2
CC(C)COc1ccc(-c2nnc(-c3ccncc3)o2)cc1,-15.1,0.0,-1.4,0.668,.,-2.5,-11.9
Cc1ccccc1Nc1nc(N)nc(COC(=O)/C=C/c2ccco2)n1,2.3,-0.1,-9.2,0.654,i,4.5,-3.5
Cc1csc(=O)n1CC(=O)Nc1ccc(Cl)c(Cl)c1,0.1,-1.3,-8.1,0.611,i,-3.0,0.0

# Not all compounds are listed; count on the stated rates, not on these rows.
